Source: PubChem
CtBP-E1A blk – qHTS Assay for Inhibitors of the CtBP/E1A Interaction | CtBP / adenovirus E1A interaction (AlphaScreen) | AlphaScreen GST-E1A/His-CtBP binding, 1536-well; stronger effect = lower value; control for the full effect not named in the record | activity change, % (test concentration not listed) | hit rate 0.49% among 340,000; in the data active means activity change below about -65%; inconclusive means about -30% to -65%; inactive means above about -30%; note: % is set by controls: 0 for no effect and ±100 for the full control effect; compound concentration not given in the record
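Homogeneous bead-based format: GST-tagged E1A captured on glutathione donor beads, His-tagged CtBP on nickel acceptor beads; compounds precede bead addition by 2 h at 37 °C.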
D2 PAM – Beta-Arrestin HTS for Positive Allosteric Modulators of the Human D2 Dopamine Receptor: Potentiators; hit rate 0.23% among 360,000; DiscoveRx D2 beta-arrestin cells, luminescence, 90 min; 100% = 57 uM dopamine signal; AID 624464, 2012; D(2) dopamine receptor (Homo sapiens), P14416; potentiation, % (test concentration not listed); active = potentiation of 50% or more; inconclusive = 30% to 50%; inactive = 30% or less;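 note: compound concentration not given in the record; tested on top of an EC20 dose of dopamine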
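PathHunter beta-arrestin assay in DiscoveRx D2 cells. Compounds were added with an EC20 of dopamine (50 nM final) for 90 min at 37 deg C. Luminescence was read 1 h after detection reagent, with 57 uM dopamine as the EC100 control.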
Six1-Eya2 blk – qHTS Assay for Inhibitors of the Six1/Eya2 Interaction; Homeobox protein SIX1 (Homo sapiens) + Protein phosphatase EYA2 (Homo sapiens), …; AlphaScreen GST-Six1/His-Eya2 binding, biochemical; stronger effect = lower value; control for the full effect not named in the record; activity change, % (no concentration beside the values); hit rate 0.56% among 360,000; AID 651725, 2012; in the data active = activity change below about -65%; inconclusive = about -30% to -65%; inactive = above about -30%; note: % is set by controls: 0 for no effect and ±100 for the full control effect; compound concentration not given in the record
Target sequence (O00167 whole entry, looked up): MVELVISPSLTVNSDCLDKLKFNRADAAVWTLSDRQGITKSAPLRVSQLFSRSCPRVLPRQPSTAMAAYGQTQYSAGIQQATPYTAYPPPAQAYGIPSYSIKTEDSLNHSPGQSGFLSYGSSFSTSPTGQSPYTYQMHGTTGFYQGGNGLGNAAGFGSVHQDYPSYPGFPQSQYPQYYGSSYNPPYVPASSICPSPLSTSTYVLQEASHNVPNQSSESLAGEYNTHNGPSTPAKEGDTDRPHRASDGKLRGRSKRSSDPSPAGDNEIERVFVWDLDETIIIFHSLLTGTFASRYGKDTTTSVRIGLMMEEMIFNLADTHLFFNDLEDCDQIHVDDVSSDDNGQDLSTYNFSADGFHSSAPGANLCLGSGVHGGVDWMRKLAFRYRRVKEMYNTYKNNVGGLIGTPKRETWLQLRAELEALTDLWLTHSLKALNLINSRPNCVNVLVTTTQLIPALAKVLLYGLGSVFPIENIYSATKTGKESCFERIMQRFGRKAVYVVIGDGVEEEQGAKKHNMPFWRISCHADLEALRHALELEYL
Target sequence (Q15475 whole entry, looked up): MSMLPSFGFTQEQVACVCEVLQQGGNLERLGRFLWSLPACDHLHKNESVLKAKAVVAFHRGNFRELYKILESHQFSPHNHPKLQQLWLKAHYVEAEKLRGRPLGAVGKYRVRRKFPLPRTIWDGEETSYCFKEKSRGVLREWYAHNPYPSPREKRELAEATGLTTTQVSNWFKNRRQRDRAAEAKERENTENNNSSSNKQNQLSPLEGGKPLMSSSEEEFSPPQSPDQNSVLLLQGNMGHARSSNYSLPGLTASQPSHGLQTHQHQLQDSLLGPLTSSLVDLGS
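Six1/Eya2 binding was read as AlphaScreen signal after compounds were pinned into GST-Six1 plus His-tagged Eya2 (5X stock 250/500 nM) in pH 8.0 Tris/NaCl/TCEP buffer, beads added, then incubated 1 h, 37 C, dark.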
TRPML1 blocker – qHTS for Inhibitors of the Human Mucolipin Transient Receptor Potential 1 (TRPML1); TRPML1-inducible cells, Ca2+ dye fluorescence, FDSS; stronger effect = lower value; inhibition of EC80 agonist-evoked calcium signal; AID 624415, 2012; hit rate 0.02% among 390,000; activity change, negative = inhibition, % (no concentration beside the values); Mucolipin-1 (Homo sapiens), Q9GZU1; in the data active means activity change below about -50%; inconclusive means about -30% to -50%; inactive means above about -30%;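 note: stimulus is agonist 54-4 at its EC80 concentration; % is set by controls: 0 for no effect and ±100 for the full control effect; compound concentration not given in the record; the text of the record puts the active cut at -80%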
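Calcium fluorescence in TRPML1-DL cells induced overnight with Tet: a 110 s read after compound pin addition, then a 110 s antagonist read after challenge with 54-4 at 4 uM final (EC80).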
TRPML1 agonist – qHTS for Agonists of the Human Mucolipin Transient Receptor Potential 1 (TRPML1); activation, % (no concentration beside the values); hit rate 0.12% among 410,000; TRPML1-expressing cells, Ca2+ dye fluorescence, FDSS; host cell line not named in the record; reference of the full effect not given here; Mucolipin-1 (Homo sapiens), Q9GZU1; in the data active = activation above about 50%; inconclusive = about 30% to 50%; inactive = below about 30%; note: 0% is about no effect; the text of the record puts the active cut at 80%
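Agonist activity was taken from a 110 s kinetic Ca2+ dye read on the FDSS after pinning compounds onto TRPML1-DL cells. The cells were seeded at 1,500/well with Tet inducer, incubated about 16 h, then dye-loaded at room temperature.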
TRPV1 PAM – HTS Assay for Compounds that Act as Potentiators of the Vanilloid Receptor 1. potentiation, % at 8.33 µM. hit rate 0.02% among 320,000. TRPV1-expressing cells, Fluo-8 calcium influx, capsaicin EC20 potentiation; host cell line not named in the record; control for the full effect not named in the record; active means potentiation above 80%; inconclusive means 30% to 80%; inactive means below 30%; note: 0% is about no effect
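TRPV1-expressing cells were cultured overnight at 35.5C and loaded with Fluo-8 calcium dye for 40 to 90 min at room temperature. After a 10 s baseline, compound was added and calcium influx was read kinetically for 3 min (ex 480/em 520 nm).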
An asterisk follows results filed as active; ? = inconclusive; / = not tested or not shown; & = joins results of further samples.

SMILES	CtBP-E1A blk	D2 PAM	Six1-Eya2 blk	TRPML1 blocker	TRPML1 agonist	TRPV1 PAM
CC(C)NC(=O)CN1C(=O)NC(CCc2ccccc2)C1=O (configuration not stated)	6	5	6	18	-0.2	20
O=[N+]([O-])c1cncc([N+](=O)[O-])c1Nc1cccc(O)c1	-28	16	-28	4	-0.2	-23
COC(=O)c1sc(C(F)(F)F)c(-c2ccccc2)c1S(=O)(=O)N1CCOCC1	9	-4	0	-2	-0.7	/
COc1cccc2c1nc(C)c1cc(C)oc12	-2	-5	-9	2	0.9	-5
COc1ccccc1CNC(=O)CCc1nnc2ccc(NCCCN3CCCC3=O)nn12	0	-8	2	33	-0.2	2
O=C(Nc1ccc(F)cc1F)c1cc(Cl)sc1Cl	1	-10	15	43	0.8	-13
C[C@]12C(=O)N(c3ccc(Br)cc3)C(=O)N1[C@H]1c3ccccc3OC[C@@H]1[C@H]2c1ccccc1	-7	-4	-17	1	-0.4	/
CN(Cc1ccccc1)C(=O)c1ccc(NC(=O)Cc2cccc(NC(=O)C3CCCN(C(=O)C4CCCC4)C3)c2)cc1 (configuration not stated)	/	-12	12	-10	1.5	3
CCOC(=O)c1ccc(NC(=O)c2cc(C)nc3ccccc23)cc1	-2	-2	1	5	0.4	-8
Cc1ccnc(NS(=O)(=O)c2ccc(NC(=O)/C=C/c3cccs3)cc2)n1	-7	-3	-3	-8	-0.3	6
O=C(NCCN1CCOCC1)c1sc2ccccc2c1Cl	/	-15	1	16	-0.7	-11
Cc1cc(C)c2[nH]c(=O)c(CN(Cc3ccc4c(c3)OCO4)Cc3nnnn3C3CCCC3)cc2c1	5	-27	-14	27	1.7	-2
CC1(C(=O)NS(=O)(=O)c2cccs2)CCN1C(=O)Cc1ccc(-c2ccccc2)cc1 (configuration not stated)	-5	-4	5	/	-0.7	/
CN(C(=O)COC(=O)CNC(=O)c1ccc2ccccc2c1)c1c(N)n(Cc2ccccc2)c(=O)[nH]c1=O	2	-7	-1	2	0.0	4
C=CCC(CC=C)(C(N)=O)c1ccccc1	3	-1	3	14	-0.1	1
Cc1ccc(-c2nnc(SCC(=O)NC3CCCC3)n2C)cc1	4	-3	-1	-18	-0.2	3
O=C(Nc1ccc(Cl)c(Cl)c1)N(Cc1cccnc1)Cc1ccco1	0	-9	-5	22	0.9	-3
O=C(CCn1nnc2ccccc21)OCC(=O)c1ccc([N+](=O)[O-])cc1	4	-2	1	8	0.2	11
O=C(COc1ccccc1)NC(=S)Nc1cccc([N+](=O)[O-])c1	-5	-18	-10	-23	-0.4	27
Fc1ccc(-n2cc(CNCCc3ccccn3)c(-c3ccccc3Cl)n2)cc1	-1	-16	-10	13	0.8	-5
Oc1ccc2ccccc2c1C=NC1CCCCC1	0	?	-9	-13	-0.4	-17
COc1ccccc1CNC(=O)COC(=O)c1cccc(S(=O)(=O)N2CCCCC2)c1	-5	-4	8	-10	0.4	-12
CN(c1ccccc1)S(=O)(=O)c1cc(C(=O)OCC(=O)N2CCN(C(=O)c3ccco3)CC2)ccc1Cl	2	-2	-12	39	1.4	-1
CCN(C(=O)COC(=O)c1nc2nc(C)cc(C)n2n1)C1CCS(=O)(=O)C1 (configuration not stated)	5	-3	-1	-12	0.2	3
CCn1c(SCC(=O)Nc2cc(C)on2)nnc1-c1ccc(OC)cc1	1	-7	6	-14	0.6	-12
O=C(Nc1ccc(NC(=O)c2cccs2)c(Cl)c1)c1ccco1	1	-2	-4	9	-0.7	-13
OCCN(Cc1ccccn1)Cc1ccccn1	-89*	10	-90*	/	-0.3	/
CCNC(=S)NCc1ccc2[nH]c(C)cc2c1	?	-7	-26	27	0.1	-7
COC(=O)c1ccc2c(c1)S(=O)(=O)NC(=NCc1ccco1)S2	-7	-23	-11	21	-0.9	-16
N#Cc1c(OCC(=O)c2ccccc2)nc2c(c1-c1ccco1)CCc1ccccc1-2	10	13	6	28	-0.5	4
CCOC(=O)C1=C(C)Nc2nc(SCC)[nH]c(=O)c2C1c1ccncc1 (configuration not stated)	-15	10	-4	-4	2.4	4
NC(CSS(=O)(=O)O)=NCCC12CC3CC(CC(O)(C3)C1)C2	8	-10	-4	-11	0.7	5
CCOc1ccccc1NC(=O)CSc1nnc(-c2ccccc2Cl)n1Cc1ccco1	-9	7	-1	-14	3.1	-6
CCOC(=O)N1CCN(C(=O)c2ccc3c(c2)N(Cc2cc(C)ccc2C)C(=O)c2ccccc2S3=O)CC1 (configuration not stated)	/	2	-4	5&17	0.4&-0.8	19
COc1ccc(Cl)cc1NC(=O)CN(C)CC(=O)Nc1ccc(Br)cc1	1	-11	9	5	0.9	9
CC1(C(=O)NS(=O)(=O)c2cccc(Cl)c2)CCN1C(=O)COc1ccc(Cl)cc1 (configuration not stated)	7	2	4	/	0.0	/
Clc1ccc(Cn2c(/C=C/c3ccco3)nc3ccccc32)cc1	13	-15	2	6	1.0	-7
COCCn1c(SCC(=O)Nc2ccccc2C(F)(F)F)nc2ccccc2c1=O	0	3	-5	2	0.5	-10
CCOc1ccccc1C(=O)N[C@H](C(=O)NCc1ccccc1)C(C)C	-1	-1	5	-1	0.3	-11
Cc1cc(C)cc(-n2c(C)nc3cc(C(=O)O)ccc32)c1	6	1	4	27&25	0.6&1.5	-6

Reprinted at random: 5 records from the list
SMILES	CtBP-E1A blk	D2 PAM	Six1-Eya2 blk	TRPML1 blocker	TRPML1 agonist	TRPV1 PAM
O=C(Nc1ccc(NC(=O)c2cccs2)c(Cl)c1)c1ccco1	1	-2	-4	9	-0.7	-13
COc1ccccc1CNC(=O)COC(=O)c1cccc(S(=O)(=O)N2CCCCC2)c1	-5	-4	8	-10	0.4	-12
CCOc1ccccc1C(=O)N[C@H](C(=O)NCc1ccccc1)C(C)C	-1	-1	5	-1	0.3	-11
NC(CSS(=O)(=O)O)=NCCC12CC3CC(CC(O)(C3)C1)C2	8	-10	-4	-11	0.7	5
CC1(C(=O)NS(=O)(=O)c2cccc(Cl)c2)CCN1C(=O)COc1ccc(Cl)cc1 (configuration not stated)	7	2	4	/	0.0	/

Further results
SMILES	CtBP-E1A blk	D2 PAM	Six1-Eya2 blk	TRPML1 blocker	TRPML1 agonist	TRPV1 PAM
C/C(N)=C(/C#N)C(=O)COC(=O)CNS(=O)(=O)c1ccc2ccccc2c1	7	-6	1	-6	-0.9	/
O=[N+]([O-])c1ccc(COc2cccc(CNc3ccc(F)cc3)c2)cc1	7	18	?	-4	-1.7	8
CCN=c1sc2ccccc2n1CC(O)COc1ccccc1 (configuration not stated)	10	-51	17	16	0.1	-7
c1ccc(-c2nccc(-c3ccc(-n4cnc5ccccc54)cc3)n2)cc1	5	-10	-4	15	-1.0	-1
COc1ccc(NS(=O)(=O)c2cccc(C(=O)N/N=C(/C)c3ccc(-n4ccnc4)cc3)c2)cc1	-7	-2	3	-6	1.5	/
Clc1ccc(-c2nc(Cc3ccccc3)no2)cc1	12	-12	33	20	0.9	-10
CC(=O)C[C@@H](O)CC(=O)[C@H]1OC(=O)CCCCCCc2ccccc21	3	-45	10	22	-0.1	2
Oc1c(Br)cc(Br)cc1CNn1cnnc1	-4	-5	-6	-11	-0.4	11
Oc1ccc(C[C@H]2CNC(=S)N2CC2CCCN2C[C@H](Cc2ccccc2)N2C[C@H](Cc3ccc(O)cc3)N(CC3CCCCCC3)C2=S)cc1 (some centres not stated)	-13	0	-5	14	-0.7	/
O=C(CS(=O)c1ccc(F)cc1)Nc1ccccc1Cl (configuration not stated)	-1	-4	5	-1	-0.7	-2
Cc1ccc(NC(=O)c2c([N+](=O)[O-])cnn2C)cc1C	10	0	-6	-1	1.0	-15
COc1cccc(CN(C)C(=O)Cc2ccc(OC)c(S(=O)(=O)N3CCOCC3)c2)c1	10	-13	-3	-13	0.3	-11
Cn1c(=O)n(C/C=C/c2ccccc2)c(=O)c2c1nc1n2CCCN1c1ccc(F)cc1	-7	-5	-8	2	1.0	-18
CCOc1ccc2nc(SCc3ccc(F)cc3)sc2c1	70	8	55	-7	3.5	3
Nc1ccn([C@@H]2O[C@H](C(=O)N3CCCN(Cc4cccs4)CC3)[C@@H](O)[C@H]2O)c(=O)n1	1	-7	-5	/	-0.4	/
O=C(OCc1ccccc1)N1CCCC1/C=C/CN1CCOCC1 (configuration not stated)	-1	-14	7	1	-0.1	-7
CCc1nc2c(OCc3ccc(C(F)(F)F)cc3)cccn2c1N(C)C(=O)c1ccco1	-4	0	-5	/	-0.7	/
O=C(CN1CCCC1)Nc1ccccc1Cl	3	-5	0	-3	-0.8	-9
COc1ccc(Nc2nc(-c3c(C)nc4ncccn34)cs2)cc1	/	-14	?	-2	2.3	-11
CCCCCNC(=O)c1cn(CC)c2cc(N3CCN(C)CC3)c(F)cc2c1=O	1	-11	-1	0	-0.3	-4
CCn1cc(-c2cc(C(F)(F)F)n3nc(C(=O)O)cc3n2)c(C)n1	-19	2	-8	3	0.6	-7
Cc1ccc(S(=O)(=O)N2CCOCC2)cc1C(=O)Nc1ccc(-c2cn3ccsc3n2)cc1	?	5	?	41	0.0	23
COC(=O)CN(C)C(=O)c1ccc2nc(Cc3cccc(Cl)c3)oc2c1	-2	-4	2	-5	-0.3	8
FC(F)(F)Oc1ccccc1C(c1nnnn1Cc1ccccc1)N1CCN(C/C=C/c2ccccc2)CC1 (configuration not stated)	-26	-16	-14	/	0.3	/
COc1ccc(OC)c(CN2CCN(C(=O)c3ccco3)CC2)c1	-13	2	9	10	-0.6	-5
COc1ccc(CCN=Cc2ccc(O)cc2)cc1OC	-1	-22	-15	10	-0.8	6
O=C(C[C@H]1C/C=C\CC[C@@H](Cc2ccc(F)cc2)C(=O)OC[C@H]2CCCN2C1=O)N[C@H](CO)Cc1ccccc1	-1	/	0	-7	0.7	/
CCCCOC1CC(c2ccc(OCc3ccc(OC)cc3)c(OC)c2)N(C)O1 (configuration not stated)	5	-4	-17	-7	0.6	-6
Cc1noc(NC(=O)c2ccc(F)cc2)c1C#N	13	24	1	2	-0.9	13
OCCN1CCN(c2nc(N3CCCCC3)nc(N3CCCCC3)n2)CC1	-3	-16	-2	14	-1.1	-6
COc1ccc(C(=O)NCC(c2ccco2)N2CCc3ccccc32)cc1OC (configuration not stated)	3	-12	-20	8	0.2	-6
Cc1onc(-c2ccccc2Cl)c1C(=O)N1CCc2ccccc2C1	-2	-9	3	18	5.7	5
COCCNC(=S)NNC(=O)c1ccc(-n2cnnn2)cc1	-9	-13	7	29	-1.0	1

Six1-Eya2 blk, hit marks shown above.
Structure,CtBP-E1A blk,D2 PAM,Six1-Eya2 blk,TRPML1 blocker
OCCN(Cc1ccccn1)Cc1ccccn1,-89*,10,-90*,/
